KCNQ2 enhance: KCNQ2 (rat) channel potentiation. B-score at 10 µM. O88943. CHO-K1 KCNQ2, FluxOR thallium flux fluorescence; stronger effect = higher value. 310,000 tested, 0.54% active. AID 2239;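 active = fluorescence ratio B-score at least 3 SD of library B-scores, with initial fluorescence B-score within 3 SD, cut at about 5.3 in these data; same plate scores as AID 2156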;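 also: B-score of peak minus minimum over baseline fluorescence ratio after K+ and Tl+ stimulus; positive B-score means potentiation of KCNQ2 with more thallium influx and brighter signal; only the inactives scoring about 0 or higher are listed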
Target sequence (O88943 whole entry, looked up): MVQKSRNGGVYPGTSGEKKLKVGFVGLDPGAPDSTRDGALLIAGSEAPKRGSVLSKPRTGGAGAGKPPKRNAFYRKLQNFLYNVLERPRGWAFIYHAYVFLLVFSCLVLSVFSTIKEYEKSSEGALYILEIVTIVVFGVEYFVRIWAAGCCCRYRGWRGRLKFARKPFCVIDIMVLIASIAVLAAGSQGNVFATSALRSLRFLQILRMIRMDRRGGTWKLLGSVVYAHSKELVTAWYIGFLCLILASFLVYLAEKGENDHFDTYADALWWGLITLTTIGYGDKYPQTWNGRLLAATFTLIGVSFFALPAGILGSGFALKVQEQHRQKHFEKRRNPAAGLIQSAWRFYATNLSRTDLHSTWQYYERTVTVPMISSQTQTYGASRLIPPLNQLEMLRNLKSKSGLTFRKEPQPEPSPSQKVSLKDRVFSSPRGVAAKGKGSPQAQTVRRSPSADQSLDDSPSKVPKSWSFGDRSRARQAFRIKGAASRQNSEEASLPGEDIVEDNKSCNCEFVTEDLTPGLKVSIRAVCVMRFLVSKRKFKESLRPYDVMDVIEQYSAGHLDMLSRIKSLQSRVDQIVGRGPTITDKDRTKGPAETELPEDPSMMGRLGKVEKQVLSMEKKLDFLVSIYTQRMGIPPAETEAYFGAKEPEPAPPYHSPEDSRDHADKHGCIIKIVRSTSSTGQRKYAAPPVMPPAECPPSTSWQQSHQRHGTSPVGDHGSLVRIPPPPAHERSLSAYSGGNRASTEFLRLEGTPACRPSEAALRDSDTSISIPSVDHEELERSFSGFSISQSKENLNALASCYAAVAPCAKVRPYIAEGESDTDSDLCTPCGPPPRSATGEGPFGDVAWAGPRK
KCNQ2 enhance baseline: further read-out of KCNQ2 enhance, marked with its call; B-score; compound at 10 µM; measured here: initial fluorescence intensity artifact check;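 brightness before thallium and not channel activity; 0 = typical well and far values either way flag optical interference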
The depositor's hits bear a star. The list is partial (hit frequency here may not be typical).

SMILES | KCNQ2 enhance | KCNQ2 enhance baseline
OCCn1c(-c2ccccc2)csc1=Nc1ccccc1 | 1.19 | 2.97
COc1ccc(NC(=O)Nc2ccc3oc(C)nc3c2)cc1 | 1.06 | -0.41
CC(C)(C)C(=O)Nc1ccccc1C(=O)NCCC(=O)Nc1ccccc1 | 0.56 | -0.71
CCCc1nc2cc(Cl)c([N+](=O)[O-])cc2o1 | 1.33 | -0.43
C/C=C/C(=O)OCC(=O)Nc1ccc(OC)c(Cl)c1 | 1.61 | 0.22
O=C(O)COc1ccccc1/C=N/NC(=O)CSc1nnc(SCc2ccccc2)s1 | 1.14 | 0.64
CCC/C(=N\NC(=O)c1csc(C)c1C)c1cccs1 | 1.86 | 0.13
O=C(Nc1cccc(C(=O)NC2CCCC2)c1)c1ccccc1 | 3.42 | -1.65
Cc1cc(C)n2nc(SCC(=O)c3c(N)n(CC(C)C)c(=O)n(C)c3=O)nc2n1 | 0.02 | -0.6
Cc1cnc(C(=O)OCC(=O)c2ccc(F)cc2)cn1 | 0.52 | -0.04
CN(C)C(CNC(=O)CCCN1C(=O)c2cccc3cccc(c23)C1=O)c1ccccc1 (configuration not stated) | 2.42 | -0.04
N#CC1=C(N)Oc2cc(N)ccc2C1c1cc(Br)cs1 (configuration not stated) | 0.08 | 1.1
Cc1nc2ccc(NC(=O)N3CCOCC3)cc2nc1C | 2.07 | 0.22
COc1cccc(C(=O)N2CCN(C(=O)c3cccs3)CC2)c1OC | 0.89 | 2.7
CN(C(=O)COC(=O)CNC(=O)c1ccc2ccccc2c1)c1c(N)n(Cc2ccccc2)c(=O)[nH]c1=O | 0.06 | 0.28
O=C1c2ccccc2C(=O)N1c1cccnc1 | 0.01 | -0.57
CCOC(=O)c1sc(NC(=O)Nc2ccc(Cl)cc2)nc1C | 1.64 | -2.85
COc1ccc(N(CCC#N)S(=O)(=O)c2ccc(Cl)cc2)cc1 | 0.78 | 1.87
COc1ccc(C2=NOC(C(=O)NC(C)C)C2)cc1 (configuration not stated) | 1.35 | 0.99
CCC(NC(=O)Nc1nnc(C(F)(F)F)s1)(C(F)(F)F)C(F)(F)F | 3.81 | 0.6
CCCc1cc(=O)oc2c(C)c(OCC(=O)N3C[C@H]4C[C@@H](C3)c3cccc(=O)n3C4)ccc12 | 0.23 | -0.7
CCC(C)NCCCCOc1cc(C)cc(C(C)C)c1 (configuration not stated) | 1.62 | 0.44
O=C(COc1ccccc1)NC(=S)Nc1cccc([N+](=O)[O-])c1 | 0.22 | -0.49
CCNC(=O)COC(=O)/C=C/c1cccc([N+](=O)[O-])c1 | 2.89 | -1.43

Pulled one by one from the list above, 4 records:
SMILES | KCNQ2 enhance | KCNQ2 enhance baseline
O=C(Nc1cccc(C(=O)NC2CCCC2)c1)c1ccccc1 | 3.42 | -1.65
O=C(COc1ccccc1)NC(=S)Nc1cccc([N+](=O)[O-])c1 | 0.22 | -0.49
CCC(NC(=O)Nc1nnc(C(F)(F)F)s1)(C(F)(F)F)C(F)(F)F | 3.81 | 0.6
CN(C)C(CNC(=O)CCCN1C(=O)c2cccc3cccc(c23)C1=O)c1ccccc1 (configuration not stated) | 2.42 | -0.04

(continued)
SMILES | KCNQ2 enhance | KCNQ2 enhance baseline
Cn1c(/N=C/c2cc(Cl)ccc2O)nc2ccccc21 | 2.23 | -0.71
O=C(CCNS(=O)(=O)c1cccc2nsnc12)NCc1cccs1 | 0.19 | -0.65
O=C(COc1cccnc1[N+](=O)[O-])N1CCN(C(=O)c2ccco2)CC1 | 1.1 | -0.6
O=C1CC(C(=O)Nc2ccc(F)cc2)S/C(=N\N=C\c2ccco2)N1 (configuration not stated) | 0.52 | -0.62
CCOC(=O)CN1CC23C=CC(O2)C(C(=O)NC2CCCC2)C3C1=O (configuration not stated) | 1.01 | -0.12
CCOc1cc(-c2noc(N)c2C(=O)OC)cc(OCC)c1OCC | 0.41 | 0.46
COCCN(C(=O)CCC(=O)Nc1cc(C)on1)C(C(=O)NC1CCCC1)c1ccc(C(C)C)cc1 (configuration not stated) | 1.01 | -0.55
COc1cccc(CNC(=S)Nc2ccc(Cl)cc2C)c1 | 0.03 | -2.26
O=c1[nH]c(CN2CCN(c3ccccn3)CC2)nc2c(Br)cc(Br)cc12 | 0.01 | -0.17
O=C(Nc1ccc(Cl)cc1)N1CCC(c2nc(-c3ccccc3Cl)no2)CC1 | 1.53 | 0.47
Cc1ccc2nc(C)cc(NCCO)c2c1 | 0.07 | -1.17
COc1cccc(C(C)NC(=O)Nc2cc(Cl)ccc2OC)c1 (configuration not stated) | 1.87 | 0.75
COc1ccc(NC(=S)N(CCN(C)C)C(C)c2ccco2)cc1Cl (configuration not stated) | 0.06 | -0.52
CCOc1ccccc1OCCN1CCCC1 | 0.01 | -3.02
O=c1c2ccccc2nc(/C=C/c2cc(Br)ccc2O)n1CCO | 1.32 | -0.03
CNC(=O)COc1ccccc1C(=O)Nc1ccc2c(c1)oc1ccccc12 | 0.45 | -0.82
COC(=O)c1c(C(=O)OC)c2n(c1C)CCC2 | 1.06 | -0.72
COc1ccc(CC(=O)NCC(=O)NC(Cc2ccccc2)C(=O)O)cc1 (configuration not stated) | 0.13 | 1.04
CC1(C)OC(=O)N(Cc2ccco2)C1(C)O (configuration not stated) | 0.66 | -1.39
COc1cc(C(=O)N2CCN(C3CCC(C)CC3)CC2)cc(OC)c1OC (configuration not stated) | 0.38 | 0.8
CC(C)CNC(=O)C1Nc2ccccc2C2C=CCC12 (configuration not stated) | 0.12 | 0.02
Cc1cccn2cc(-c3cccc(S(=O)(=O)N4CCOCC4)c3)nc12 | 0.4 | -1.92
CC(=O)NC(NC(C)=O)c1cccc(OCc2ccccc2)c1 | 0.01 | -0.38
CCC(C)[C@H](NC(=O)OC(C)(C)C)C(=O)N/N=C/c1ccc2nccnc2c1 (some centres not stated) | 0.58 | 0.42

Compound profiles, from the list above. Order of values: KCNQ2 enhance | KCNQ2 enhance baseline
CNC(=O)COc1ccccc1C(=O)Nc1ccc2c(c1)oc1ccccc12 in the list: 0.45 | -0.82
CC(C)CNC(=O)C1Nc2ccccc2C2C=CCC12 (configuration not stated) in the list: 0.12 | 0.02
COc1cc(C(=O)N2CCN(C3CCC(C)CC3)CC2)cc(OC)c1OC (configuration not stated) in the list: 0.38 | 0.8
CCOc1ccccc1OCCN1CCCC1 in the list: 0.01 | -3.02
COc1ccc(CC(=O)NCC(=O)NC(Cc2ccccc2)C(=O)O)cc1 (configuration not stated) in the list: 0.13 | 1.04

New compounds follow:
SMILES | KCNQ2 enhance | KCNQ2 enhance baseline
O=C(O)c1ccc(COCC(F)(F)F)cc1 | 1.89 | -1.4
O=C(CCNC(=O)Cn1cnc2ccccc2c1=O)NCCC1=CCCCC1 | 1.68 | 0.4
Oc1ccc(Cl)cc1Nc1nc(NCC2CCCO2)c2ccccc2n1 (configuration not stated) | 1.64 | -0.02
COc1ccccc1NNC(=O)c1cccnc1Oc1ccccc1 | 1.04 | -1.1
CCc1cc2c(N[C@@H](C)C(=O)O)ncnc2s1 | 1.07 | 0.45
CCOC(=O)CNC(=O)CSc1ccc(-c2nc3ccccc3[nH]2)cn1 | 0.32 | -0.11
COc1cccc(CC(=O)Nc2ccccc2N2CCCC2)c1 | 6.14* | 0.62*
CCCCOc1ccc2ccccc2c1C=O | 0.81 | 1.36
CC(C)c1ccc(C(C)NC(=S)NC2CCCCC2)cc1 (configuration not stated) | 16.4* | -1.64*
O=S(=O)(Nc1nc2ccccc2nc1Cl)c1ccc(Cl)cc1 | 0.09 | -0.85
CCCn1nc2cc(C(=O)NCc3ccc(C)cc3)ccc2c1OC | 0.77 | 0.36
CCCCN(C1CCS(=O)(=O)C1)S(=O)(=O)c1ccc(C(C)C)cc1 (configuration not stated) | 0.42 | -0.07
CCOc1ccc(NC(=O)CSc2nnc(CNC(=O)c3cccs3)o2)cc1 | 0.86 | -0.02
O=C(NC1CCCCC1)C(c1ccco1)N(C(=O)C(F)(F)F)C1CC1 (configuration not stated) | 0.32 | -2.57
CCCC(=O)N1CCN(Cc2ccc3c(c2)OCO3)CC1 | 0.45 | -0.01
O=C1CCCc2nc(N3CCc4ccccc43)ncc21 | 1.84 | 1.37
CCOC(=O)c1nc(-c2ccc3c(c2)OCO3)[nH]c1C | 0.08 | -0.04
Cc1ccc(CNC(=O)C(Cc2ccccc2)NS(=O)(=O)c2cccs2)cc1 (configuration not stated) | 3.27 | -2.28
Cc1cccc(CCNC(=O)C2CCN(S(=O)(=O)c3ccccc3)CC2)c1 | 1.02 | 0.42
COc1ccc(N(CC(=O)Nc2ccc(OC)c(Cl)c2)S(=O)(=O)c2c(C)noc2C)cc1 | 1 | 0.79
CC(=O)Nc1ccc(C(=O)NC(CC(=O)O)c2ccc(Cl)cc2)cc1 (configuration not stated) | 1.46 | -0.21
Cn1c(=O)c2[nH]c(COc3ccc(C(C)(C)C)cc3)nc2n(C)c1=O | 1.95 | 1.71
CC1CN(c2ccccc2)c2nc3c(c(=O)[nH]c(=O)n3C)n2C1 (configuration not stated) | 0.11 | -2.01
CCCN1CCN(CC(O)COC(c2ccc(OC)cc2)c2ccc(OC)cc2)CC1 (configuration not stated) | 0.01 | 0.41
O=C(CSc1nnnn1C1CC2C=CC1C2)Nc1ccc(C(=O)O)cc1 (configuration not stated) | 0.91 | -1.31
Cc1ccc2c(c1)nnn2C1CCN(S(=O)(=O)c2ccc(C(=O)NC3CCCC3)cc2)CC1 | 0.77 | 0.11
CSc1nc(N)nc(SCC(=O)c2ccccc2)c1C#N | 0.5 | -1.38
CCOC(=O)c1cc(=O)n2[nH]c(-c3ccc(C)cc3)cc2n1 | 0.27 | -0.04
Cc1csc(NC(=O)c2cccs2)n1 | 1.8 | -0.94
CC1CCCN(C(=O)Cn2nnc(-c3ccc(N(C)C)cc3)n2)C1 (configuration not stated) | 0.98 | 2.24
CCCCn1c(-c2ccc(Br)cc2F)nc2c1c(=O)[nH]c(=O)n2CC(C)C | 0.58 | -0.5
COCCCNC(=O)Cn1ncc2ccsc2c1=O | 1.3 | -1.06
O=C(O)Cc1csc(-c2ccccc2)n1 | 1.68 | -1.59
Cc1sc(NC(=S)NC(=O)c2ccco2)c(C(N)=O)c1C | 1.11 | -0.26
CCOc1ccc(-n2nnc3c(=O)n(CC(=O)NCc4ccco4)cnc32)cc1 | 0.99 | -0.13
CCS(=O)(=O)N1Cc2ccccc2CC1C(=O)Nc1ncc(C)s1 (configuration not stated) | 0.04 | 1.29

Of the compounds above, these have a CF3 group:
SMILES | KCNQ2 enhance | KCNQ2 enhance baseline
CCC(NC(=O)Nc1nnc(C(F)(F)F)s1)(C(F)(F)F)C(F)(F)F | 3.81 | 0.6
O=C(O)c1ccc(COCC(F)(F)F)cc1 | 1.89 | -1.4
O=C(NC1CCCCC1)C(c1ccco1)N(C(=O)C(F)(F)F)C1CC1 (configuration not stated) | 0.32 | -2.57

The list continues.
SMILES | KCNQ2 enhance | KCNQ2 enhance baseline
O=C(COC(=O)c1cnccn1)c1ccc(OC(=O)c2ccccc2)cc1 | 0.06 | -3.16
CCC(Sc1nc2c(cnn2-c2ccc(Cl)cc2)c(=O)[nH]1)C(=O)OC (configuration not stated) | 1.36 | -2.03
C/C(=N\NC(=O)c1ccoc1C)c1ccccc1O | 10.9* | 0.38*
CCC(=O)Nc1ccc(NC(=O)c2cccc3c(Br)cccc23)cc1 | 0.54 | 1.01
CC1CN(S(=O)(=O)c2ccc(CN3C(=O)c4cccnc4C3=O)s2)c2ccccc2O1 (configuration not stated) | 0.03 | -0.4
NS(=O)(=O)c1ccc(CNC(=O)/C=C/c2ccc(S(=O)(=O)N3CCOCC3)cc2)cc1 | 0.27 | -3.88
Cc1ccccc1C(=O)NC(=S)NC1CC1 | 0.27 | 0.72
Cc1cccc(NC(=O)c2ccc(N3CCCCC3)c([N+](=O)[O-])c2)n1 | 0.28 | 0.6
Cc1ccc(C)c(NC(=O)CCN2CCOCC2)c1 | 0.23 | 0.34
CC(=O)Nc1sc(-c2ccccc2)nc1-c1ccccc1 | 0.28 | 1.14
Cc1ccc(S(=O)(=O)CC2CSc3nc4ccccc4n32)cc1 (configuration not stated) | 0.75 | 0.03
Cc1cc(C)cc(NC(=O)C2C3C=CC4(O3)C2C(=O)N(CCN2CCCCC2)C4C(=O)NC2CCCCC2)c1 (configuration not stated) | 2.41 | -0.13
COc1ccc(/C=N/NC(=O)c2ccc(=O)n(C)c2)cc1OC | 1.05 | -0.31
Cc1cc(C)cc(NC(=O)Nc2ccc3c(c2)N(C)C(=O)CS3)c1 | 1.4 | 0.56
CN(C)c1ccc(Nc2nc(N)c([N+](=O)[O-])c(N3CCOCC3)n2)cc1 | 1.58 | 1.12
Cc1cc(C(=O)CSc2nc(N)cc(N)n2)c(C)n1-c1cccc(F)c1 | 1.16 | -0.55
CC(=O)Nc1ccccc1OCC(=O)NC(C)c1ccccc1 (configuration not stated) | 0.9 | -0.84
O=C(c1ccc(NC2=NC3CS(=O)(=O)CC3S2)cc1)N1CCc2ccccc2C1 (configuration not stated) | 0.13 | 1.16
CCC(=O)c1ccc(OCC(O)CN2CCN(S(=O)(=O)N3CCCCC3)CC2)cc1 (configuration not stated) | 1.79 | -0.25
CCOc1ccc(Nc2oc(-c3cccs3)nc2C#N)cc1 | 0.78 | -2.64
O=C(N/N=C/c1ccccc1O)C(=O)N1CCCCCC1 | 0.04 | 0.9
Cc1cc(Cl)ccc1OCC(=O)Nc1ccc(CN2CCOCC2)cc1 | 0.48 | 2.77
CCN(c1ccc(NC(=O)CCc2nc3sc4c(c3c(=O)[nH]2)CCCC4)cc1)C(C)C | 0.31 | 0.26
Cn1ncc2c(c(SCc3ccc(Cl)cc3Cl)nn2C)c1=O | 1.09 | 0.9
O=C(CNC(c1ccccc1)c1ccccc1)Nc1ccc(F)cc1 | 0.81 | -0.94
CCOC(=O)Cc1csc(N(C)C)n1 | 0.71 | -0.7
CCNC(=O)COc1ccc(OCc2ccccc2)cc1 | 0.27 | -1.31

Screening results: PubChem BioAssay, Johns Hopkins Ion Channel Center
